Source: PubChem
V. cholerae motility – Vibrio cholerae motility inhibitors, OD read-out (AID 588778); Vibrio cholerae motility, OD read-out; higher % means a stronger effect; test concentration not given here; primary cut-off and reference of the scale not given here; strong numbers were not always called active; inhibition, %; hits with a dose series show IC50 in µg/mL; 10,000 tested, under 10 active; in the data active means confirmed in a dose series; inconclusive means primary hit not retested
V. cholerae motility viability – second read-out of V. cholerae motility, no call of its own (marks repeat the call); inhibition, %; measured here: bacterial viability at 10 ug/mL;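 higher means fewer living bacteria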
Starred values were filed as active, the others as inactive; ? = inconclusive; . = no result given.

SMILES	V. cholerae motility	V. cholerae motility viability
COc1ccc(Cc2nc(SCC(=O)N3CCN(c4ccccc4)CC3)n[nH]2)cc1	14%	4
Cc1occc1C(=O)O/N=C(\N)c1ccc(Cl)cc1	11%	1
O=C(COc1ccc(Cl)cc1)NNC(=O)C1COc2ccccc2O1 (centres undefined)	10%	0
COc1cccc(-c2cc(C(F)(F)F)n3ncc(C(=O)OC(C)C)c3n2)c1	14%	16
COc1cc(CNC(C)c2ccccc2)ccc1OCc1ccc(F)cc1 (centres undefined)	16%	8
Cc1cc(C)nc(Nc2ccc(N3CCCC3)cc2)n1	-8%	0
Cn1cnnc1SCC(=O)N1CCCCC1	-11%	-1
Cc1nn(C(C)(C)C)c(OC(=O)c2ccc(Br)o2)c1Sc1ccccc1	8%	1
N#Cc1c(NC(=O)c2cc(S(=O)(=O)N3CCOCC3)cs2)sc2c1CCCC2	13%	5
CCOC(=O)N1CCN(S(C)(=O)=O)CC1	-11%	-6
O=C(NNC(=S)NC(=O)c1cccs1)c1ccc(NC(=O)c2ccccc2)cc1	19%	1
S=c1[nH]nc(-c2ccccc2Cl)n1CC1CCCO1 (centres undefined)	-4%	0
Cc1cccc(CC2CC(=O)N(C3CCCCC3)C2=O)c1 (centres undefined)	2%	-5
Cc1ccccc1-c1nnn(CC(=O)Nc2ccc(F)cc2F)n1	7%	-7
O=[N+]([O-])c1ccc2c(c1)CSc1nc3ccccc3n1-2	-9%	-7
Cc1cccc(OCC(=O)N2CCN(c3ccc(C(F)(F)F)cc3[N+](=O)[O-])CC2)c1C	4%	-2
CC(=O)c1ccc(N2CCN(C(=O)Nc3ccc(Br)cc3Cl)CC2)cc1	23%	5
COc1cc2c(cc1OC)C(c1cc3ccccc3oc1=O)=NC(C)(C)C2	0%	2
CCOc1ccccc1-c1nc2c(C(C)(C)C)nn(C)c2c(=O)[nH]1	9%	-5
C/C=C/c1ccc(OCCOc2ccccc2C(C)=O)c(OC)c1	26%	10
COc1cc(Br)c(S(=O)(=O)N2CCN(c3ccc(C)c(C)c3)CC2)cc1OC	-3%	-3
COc1ccc(C(=O)NC2C3CC4CC(C3)CC2C4)cc1Cl (centres undefined)	-8%	-7
O=C(NC(C(=O)O)c1ccccc1)NC12CC3CC(CC(C3)C1)C2 (centres undefined)	1%	-6
CC1(C)CC(=O)C=C(Nc2cc([N+](=O)[O-])ccc2N)C1	9%	-1
Oc1cc(Oc2ccccc2)ccc1Cl	?	.

Remaining list, next part:
SMILES	V. cholerae motility	V. cholerae motility viability
CNS(=O)(=O)c1cccc2cccnc12	-11%	-1
COc1ccc(S(=O)(=O)N(C)C)cc1C	8%	2
CCOc1ccccc1C(=O)Nc1cc(=O)n(C)c(=O)n1C	-3%	-4
O=C(CCc1ccccc1)Nc1nnc(SCC(=O)c2ccc3c(c2)Cc2ccccc2-3)s1	-21%	-10
Fc1ccc(N2CCN(C(=S)NCC3CCCO3)CC2)cc1 (centres undefined)	3%	3
O=C(Nc1ccc(Br)cc1F)C(Cl)(Cl)Cl	2%	-4
O=C(NC(=S)N1CCN(C/C=C/c2ccccc2)CC1)c1ccco1	31%	5
Cc1cc(C)nc(N(C#N)CC(=O)c2ccc(Br)cc2)n1	-14%	-7
COc1cc(C=NN2CCN(C3c4ccccc4-c4ccccc43)CC2)cc(OC)c1OC(C)=O	-4%	-4
O=C(CSc1ccc2ccccc2n1)c1ccc2c(c1)OCCO2	-12%	-8
CCOC(=O)c1cccc(NC(=O)CSc2nnc(-c3cc4cccc(OC)c4o3)n2C)c1	-2%	2
Cc1ccccc1C(=O)NC(=S)NCCC1=CCCCC1	10%	1
Cc1ccc(NC(=O)C(=O)Nc2ccc(C)cn2)nc1	-17%	-10
O=C1OC(c2ccccc2F)=N/C1=C\c1ccc(OC(=O)c2ccccc2Cl)cc1	10%	4
Cc1nnc(SCc2cccs2)[nH]c1=O	15%	22
NS(=O)(=O)c1ccc(CNC(=S)NCC2CCCO2)cc1 (centres undefined)	-6%	-2
Fc1ccccc1CNC(=S)NC1CC1	-3%	-9
O=C(c1ccccc1)C(Sc1nc2ccccc2o1)c1ccc(Cl)cc1 (centres undefined)	-16%	-9
Cn1nnnc1SCC(=O)N1c2ccccc2CCc2ccccc21	5%	4
O=C1NCC2=C1C(c1ccc(O)cc1)Nc1ccccc1N2 (centres undefined)	21%	4
COC(=O)CCN(C(=O)c1ccc2c(c1)OCO2)c1ccccn1	-13%	-11
O=C(c1nc2n(n1)C(c1ccc(Cl)cc1)C=C(c1ccccc1)N2)N1CCOCC1 (centres undefined)	-2%	-1
Cc1cc(NC(=O)CC2C(=O)N(c3ccccc3)C(=S)N2CCc2ccc(F)cc2)no1 (centres undefined)	13%	10
CCNC(=S)NN1CCN(C)CC1	-24%	-4
Cc1ccc([N+](=O)[O-])cc1S(=O)(=O)NCCC1=CCCCC1	6%	-4

Carrying on:
SMILES	V. cholerae motility	V. cholerae motility viability
CCCCC(=O)Nc1ccc(NCc2ccc(C)s2)cc1	17%	25
CC(COc1ccc(C(C)C)cc1)NS(=O)c1ccc2ccccc2c1 (centres undefined)	-5%	-2
O=C(COc1cc(Cl)ccc1Cl)Nc1nnc(CC(=O)N2CCOCC2)s1	-13%	-12
COc1ccc(C)cc1NC(=O)NC1CCCCC1	-18%	-8
CCOc1cc(C(=O)Nc2ccc(OC)cc2)c2ccccc2n1	-29%	-10
COc1ccc(N2CCN(C(=O)c3ccc4ccccc4n3)CC2)cc1	-16%	-10
Cc1cccc2sc(NC(=O)Cc3cccs3)nc12	72%	27
O=C(COc1ccc([N+](=O)[O-])cc1)Nc1ccc(N2CCN(Cc3ccccc3Cl)CC2)cc1	16%	2
COc1ccc(N2CC(C(=O)Nc3ccccc3I)CC2=O)cc1 (centres undefined)	0%	-3
O=C(NCCc1ccccc1)C(=O)NCCC1CCCCC1	-10%	-9
Cc1cccnc1NC(=O)c1ccccc1-c1ccccc1C(=O)Nc1ncccc1C	9%	-1
CCCCOc1ccc(C(=O)NCc2ccccn2)cc1	20%	26
O=C(NCCSCc1ccco1)Nc1ccccc1	22%	0
COc1ccc(C2(C(=O)O)CCCC2)cc1OC	14%	30
O=C(/C=C\c1ccccc1)Nc1ccc2nn(-c3ccccc3)nc2c1	5%	-8
O=[N+]([O-])c1ccc(Oc2ccc(Cl)cc2)c(C(F)(F)F)c1	-22%	-7
OCCCNCc1ccc(-c2ccccc2)cc1	12%	5
CCc1nnc(NC(=O)CCN2C(=O)/C(=C/c3ccccc3Cl)SC2=S)s1	-3%	1
COc1cc(C(=O)Nc2ccc(-c3nc4ccccc4[nH]3)cc2)ccc1OC(C)=O	-11%	-5
Cc1cc([N+](=O)[O-])c2[nH]c(C(=O)N/N=C/c3ccccn3)c(-c3ccccc3)c2c1	19%	6
Nc1ccc(-c2ccccc2C(=O)O)cc1	6%	-2

For reference, part of the list above:
SMILES	V. cholerae motility	V. cholerae motility viability
CCCCC(=O)Nc1ccc(NCc2ccc(C)s2)cc1	17%	25
CC(COc1ccc(C(C)C)cc1)NS(=O)c1ccc2ccccc2c1 (centres undefined)	-5%	-2

28 successive records already listed, quoted:
SMILES	V. cholerae motility	V. cholerae motility viability
COc1ccc(Cc2nc(SCC(=O)N3CCN(c4ccccc4)CC3)n[nH]2)cc1	14%	4
Cc1occc1C(=O)O/N=C(\N)c1ccc(Cl)cc1	11%	1
O=C(COc1ccc(Cl)cc1)NNC(=O)C1COc2ccccc2O1 (centres undefined)	10%	0
COc1cccc(-c2cc(C(F)(F)F)n3ncc(C(=O)OC(C)C)c3n2)c1	14%	16
COc1cc(CNC(C)c2ccccc2)ccc1OCc1ccc(F)cc1 (centres undefined)	16%	8
Cc1cc(C)nc(Nc2ccc(N3CCCC3)cc2)n1	-8%	0
Cn1cnnc1SCC(=O)N1CCCCC1	-11%	-1
Cc1nn(C(C)(C)C)c(OC(=O)c2ccc(Br)o2)c1Sc1ccccc1	8%	1
N#Cc1c(NC(=O)c2cc(S(=O)(=O)N3CCOCC3)cs2)sc2c1CCCC2	13%	5
CCOC(=O)N1CCN(S(C)(=O)=O)CC1	-11%	-6
O=C(NNC(=S)NC(=O)c1cccs1)c1ccc(NC(=O)c2ccccc2)cc1	19%	1
S=c1[nH]nc(-c2ccccc2Cl)n1CC1CCCO1 (centres undefined)	-4%	0
Cc1cccc(CC2CC(=O)N(C3CCCCC3)C2=O)c1 (centres undefined)	2%	-5
Cc1ccccc1-c1nnn(CC(=O)Nc2ccc(F)cc2F)n1	7%	-7
O=[N+]([O-])c1ccc2c(c1)CSc1nc3ccccc3n1-2	-9%	-7
Cc1cccc(OCC(=O)N2CCN(c3ccc(C(F)(F)F)cc3[N+](=O)[O-])CC2)c1C	4%	-2
CC(=O)c1ccc(N2CCN(C(=O)Nc3ccc(Br)cc3Cl)CC2)cc1	23%	5
COc1cc2c(cc1OC)C(c1cc3ccccc3oc1=O)=NC(C)(C)C2	0%	2
CCOc1ccccc1-c1nc2c(C(C)(C)C)nn(C)c2c(=O)[nH]1	9%	-5
C/C=C/c1ccc(OCCOc2ccccc2C(C)=O)c(OC)c1	26%	10
COc1cc(Br)c(S(=O)(=O)N2CCN(c3ccc(C)c(C)c3)CC2)cc1OC	-3%	-3
COc1ccc(C(=O)NC2C3CC4CC(C3)CC2C4)cc1Cl (centres undefined)	-8%	-7
O=C(NC(C(=O)O)c1ccccc1)NC12CC3CC(CC(C3)C1)C2 (centres undefined)	1%	-6
CC1(C)CC(=O)C=C(Nc2cc([N+](=O)[O-])ccc2N)C1	9%	-1
Oc1cc(Oc2ccccc2)ccc1Cl	?	.
CNS(=O)(=O)c1cccc2cccnc12	-11%	-1
COc1ccc(S(=O)(=O)N(C)C)cc1C	8%	2
CCOc1ccccc1C(=O)Nc1cc(=O)n(C)c(=O)n1C	-3%	-4

Not all compounds are listed; rates above refer to the full screens.
